Rango release inh = prevents RanGTP from dissociating the Rango-importin beta complex. 0.071% of 340,000 active. Biochemical FRET Rango-importin beta, RanGTP-induced dissociation. Potency, µM (series often up to 46.1 µM), for the others: top-dose activity change, negative = inhibition. AID 540253; active means falling FRET ratio curve, often poorly fitted, with flat reads before Ran was added; inconclusive means other falling curves, or compound fluorescence or quenching; inactive means flat or rising ratio curve;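 also: potency is read from the fitted curve at half-maximal effect; % of control where 0% means no effect; nearly all actives have a fitted effect of over 45% in size; -100% = wells without RanGTP and RCC1; the record marks most hits as doubtful in a second field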
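Rango (0.1 uM)–importin beta (0.25 uM) complex; RanGTP-RCC1 trigger; 45 min RT; CFP/YFP FRET read.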
Rango complex inh = prevents formation of the Rango-importin beta complex | Q14974 | Rango CFP/YFP FRET sensor + importin beta, 45 min | Potency, µM (series often up to 92.2 µM), without a hit: at the top dose inhibition of complex formation | 0.031% of 340,000 active | AID 540263; active = rising FRET ratio curve, often small or poorly fitted; inconclusive = mostly compound fluorescence or quenching in the first reads; inactive = flat curves in all reads;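 also: potency is read from the fitted curve at half-maximal effect; 0% = DMSO wells and 100% = buffer wells lacking importin beta; nearly all actives have a fitted effect of over 15% in size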
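FRET biosensor (snurportin 1 IBB flanked by EYFP and cerulean), 50 nM, with compound 5 min, then 0.125 microM importin beta in PBS, 1 mM DTT, 0.02% Tween-20, 0.1% BSA. CFP/YFP ratio read after 45 min at room temperature; pre-read flags interference.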
miR-21 reporter = miR-21 reporter, rising signal; AID 2288; HeLa miR-21 FLuc reporter, luciferase, 48 h; Potency, µM (doses to about 38.3 µM), inactives show at the highest dose reporter change, positive = more light; 340,000 tested, under 10 active; active = well fitted rising curve with a large enough effect; inconclusive = small, poorly fitted or top-dose-only effect; inactive = no such curve, though single readings can be large or run the other way;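 also: % of control where 0% means no effect; miR-21 action dims this reporter so a rising signal means less miR-21 action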
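Using DMEM plus 10% FBS, HeLa miR-21-FLuc cells are incubated with test compounds (final up to about 40uM) for 48 hours; firefly luciferase signal is then imaged following reagent-mediated lysis.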
GLA inh pH 4.5 = blocks human alpha-galactosidase A at pH 4.5; P06280; purified enzyme, 4-MU-alpha-Gal fluorescence, pH 4.5; activity change, negative = inhibition, % at 105 µM; 230,000 tested, under 10 active; inconclusive = small, poorly fitted or top-dose-only inhibition, or a rising curve; inactive = flat fitted curve, though single readings scatter; no compound was filed as active;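 also: 0% = full activity with enzyme and -100% = basal without enzyme; dose as in the result columns while the protocol names 77 µM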
Target sequence (P06280 whole entry, looked up): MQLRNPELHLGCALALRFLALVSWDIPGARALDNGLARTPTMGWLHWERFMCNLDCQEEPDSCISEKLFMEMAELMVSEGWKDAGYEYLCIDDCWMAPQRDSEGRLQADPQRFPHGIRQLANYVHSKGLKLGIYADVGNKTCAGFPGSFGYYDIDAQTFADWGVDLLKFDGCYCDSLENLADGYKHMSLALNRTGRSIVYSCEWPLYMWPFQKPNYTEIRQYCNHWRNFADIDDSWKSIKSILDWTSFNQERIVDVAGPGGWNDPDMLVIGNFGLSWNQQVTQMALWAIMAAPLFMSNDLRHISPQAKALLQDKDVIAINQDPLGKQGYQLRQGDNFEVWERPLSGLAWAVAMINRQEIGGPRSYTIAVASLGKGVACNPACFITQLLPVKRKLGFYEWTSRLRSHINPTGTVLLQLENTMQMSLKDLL
Starred values were filed as active, the others as inactive; ? = inconclusive; . = not tested or not shown; & = joins results of further samples; [ ] = another dose, or the depositor's remark. Not all compounds are listed, so the mix of outcomes need not match the whole.

Structure	Rango release inh	Rango complex inh	miR-21 reporter	GLA inh pH 4.5
COc1ccccc1Oc1ccc2c(c1)C(=O)N(c1ccc(C)cc1)C2=O	-12%	1.9%	-5%	-4
CCOC(=O)C1=C(O)/C(=C/c2cc(C)n(-c3ccccc3)c2C)N=C1C	?	?	-1%	-14
COC(=O)Cc1nc2ccccc2[nH]1	?	?	-7%	-4
CCN(CC(=O)Nc1c(F)cccc1F)C(=O)C1Cc2ccccc2CN1S(=O)(=O)CC (stereo not drawn)	-9%	3.9%	.	.
Cc1ccc(C)c(N2CCN(C(=O)CCCOc3cc(=O)n(C)c4ccccc34)CC2)c1	10%	-0.2%	29%	0
COc1ccc(NC(=O)COc2ccc(C(=O)OCC(=O)N(C)C3CCS(=O)(=O)C3)cc2OC)cc1 (stereo not drawn)	-1%	0.7%	-2%	2
CC(C)c1ccc(NC(=O)C2C3C=CC4(CN(CCCN5CCOCC5)C(=O)C24)O3)cc1 (stereo not drawn)	-22%	-0.5%	-4%	-7
NC(=NCc1ccccc1)C(N=Nc1ccccc1)C(=O)NCc1ccccc1 (stereo not drawn)	16%	-0.3%	.	.
Cc1ccc(NC(=O)CCn2c(=S)oc3ccccc32)cc1F	0%	0.0%	0%	.
Cc1ccc(S(=O)(=O)N(C)CC(=O)NNC(=O)CCC(=O)c2ccc(F)cc2)cc1	5%	-2.6%	.	.
Cc1ccc(N2C(=O)C(CC(=O)Nc3cccc(F)c3)N(C3CC3)C2=O)cc1 (stereo not drawn)	14%	0.8%	-18%	11
O=C(NC1CCSc2ccccc21)c1ccccc1Br (stereo not drawn)	-6%	-8.7%	-50%	.
O=C(O)CC1S/C(=N/N=C/c2ccc([N+](=O)[O-])cc2)N(c2ccc(O)cc2)C1=O (stereo not drawn)	12%	-0.9%	2%	-16
O=C(/C=C/c1ccc(F)cc1)Nc1ccc2[nH]c(=O)[nH]c2c1	?	-6.7%	-2%	-2
COc1ccc([C@@H]2[C@@H]3C(=O)N(C(C)(C)C)C(=O)[C@@H]3[C@]3(Cc4ccccc4)C(=O)N(c4ccc(C)cc4)C(=O)N23)cc1	-17%	4.9%	.	.
CNC(=O)c1snnc1-c1ccccc1	?	-1.1%	0%	-3
CC1(C)CC(=O)C2=C(C1)OC(c1ccc(O)cc1)C(C#N)=C2N (stereo not drawn)	-9%	0.2%	-3%	4
O=C(Cn1c(=O)oc2ccccc21)N(Cc1ccccc1)C1CCS(=O)(=O)C1 (stereo not drawn)	0%	-2.0%	-11%	5
O=c1cnnc(N/N=C/C2CC=CCC2)[nH]1 (stereo not drawn)	-19%	-1.7%	0%	1
Cc1ccc(S(=O)(=O)N(CC(=O)NN=C2CCN(C)CC2)c2ccc(C(C)C)cc2)cc1	12%	0.9%	3%	-14
Cc1ccc(S(=O)(=O)N(C)C)cc1NC(=O)COC(=O)/C=C/c1ccc2ccccc2n1	16%	0.0%	.	.
CCNc1nc2c(c(=O)n(Cc3ccccc3)c(=O)n2C)n1Cc1ccccc1	-6%	-2.4%	-4%	-3
COc1ccc(-c2csc(CCn3nc(C)cc3C)n2)cc1OC	16%	-2.0%	-19%	-8
COc1ccccc1N(CC(=O)Nc1ccc(S(=O)(=O)N2CCCCC2)cc1)S(C)(=O)=O	-11%	-0.9%	-2%	-9
Cc1noc(C)c1CSCC(=O)Nc1ccccc1N1CCCC1	0%	0.4%	.	.

Remaining list, next part:
Structure	Rango release inh	Rango complex inh	miR-21 reporter	GLA inh pH 4.5
Cc1c(NC(=O)Nc2ccccc2Cl)c(=O)n(-c2ccccc2)n1C	-17%	0.8%	0%	8
CN(C)S(=O)(=O)c1cccc(NC(=O)CCNC(=O)Nc2ccccc2)c1	0%	0.5%	.	.
Cc1ccc(OCC2Cn3c(nc4c3c(=O)n(C)c(=O)n4C)O2)cc1 (stereo not drawn)	-2%	?	-6%	0
Cc1ccc(NC(=O)COC(=O)c2cc(Cl)ccc2[N+](=O)[O-])cc1	5%	-1.1%	-2%	-2
Cc1occc1-c1nnc(SCC(=O)c2c(N)n(Cc3ccccc3)c(=O)n(C)c2=O)n1C	1%	1.4%	1%	-3
CCOC(=O)N/N=C1\CCS(=O)(=O)c2ccc(Cl)cc21	-2%	-0.2%	-6%	-2
c1ccc(-c2ccc3c(c2)NC(C2Nc4cc(-c5ccccc5)ccc4O2)O3)cc1 (stereo not drawn)	11%	3.4%	-4%	-6
COc1ccc2[nH]c3c(c2c1)CCN1C(=O)C(CC(=O)NCc2cccc(C(F)(F)F)c2)C[C@H](C(=O)N2CCOCC2)[C@@]31C (stereo partly drawn)	28%	0.6%	.	.
Cn1c(=O)c2sccc2n2c(CCCC(=O)Nc3ccc(F)cc3F)nnc12	25%	-4.8%	0%&8%	.
O=C(c1cc(-c2cccs2)on1)N1CCN(C(c2ccccc2)c2ccccc2)CC1	-19%	6.4%	-3%	-9
Cc1nc(C)c(C(=O)N/N=C/c2cn(C)c3ccccc23)s1	12%	?	-1%	4
COC(=O)c1ccccc1NC(=O)c1cccnc1	-4%	-0.3%	-1%	.
COc1cc(C(=O)NCc2nnc(SCC(=O)Nc3nccs3)o2)cc(OC)c1OC	-13%	-3.0%	2%	-4
COc1ccnc(Oc2ccc(Cl)cc2)c1C#N	-2%	3.2%	-32%	14
Cc1ccc(S(=O)(=O)Oc2ccc(/C=C3\N=C(c4cccc(C)c4)OC3=O)cc2)cc1	4%	0.2%	-4%	0
CCCCNC(=O)COC(=O)c1cc2c(C)nn(-c3ccccc3)c2s1	2%	-0.4%	-2%	3
O=Cc1ccc(N2CCCC2)o1	1%	-3.5%	5%	-14[21.1 µM]
O=C(NCc1ccc(N2CCCC2=O)cc1)c1cc(COc2c(F)cccc2F)on1	16%	-2.9%	-12%	.
Cc1ccc(S(=O)(=O)NC(=NCC(=O)O)c2ccc(F)cc2)cc1	-4%	-2.3%	1%	2
CC(=O)C1C(c2cccc(F)c2)c2c(n[nH]c2C)CC1(C)O (stereo not drawn)	-13%	-3.3%	1%	-4
Cc1nnc(Sc2nc3ccccc3o2)c2ccccc12	-3%	0.0%	-9%	-10
CC(=O)SCC[N+](C)(C)C	0%	-1.7%	1%	2&1
Cc1[nH]c2ccccc2c(=O)c1CN(C)Cc1ccccc1	-5%	-0.5%	-41%	4
CCn1nc(C)cc1Nc1ccccc1	-5%	-1.0%	-2%	-8
COc1ccc(C2/C(=C(/O)c3ccccc3)C(=O)C(=O)N2CC(C)O)c(OC)c1 (stereo not drawn)	1%	-0.5%	-1%	-4

Grouped by structure: the compounds so far with a COOH group.
Structure	Rango release inh	Rango complex inh	miR-21 reporter	GLA inh pH 4.5
O=C(O)CC1S/C(=N/N=C/c2ccc([N+](=O)[O-])cc2)N(c2ccc(O)cc2)C1=O (stereo not drawn)	12%	-0.9%	2%	-16
Cc1ccc(S(=O)(=O)NC(=NCC(=O)O)c2ccc(F)cc2)cc1	-4%	-2.3%	1%	2

Of the compounds above, 2 contain a furan ring, fused or not:
Structure	Rango release inh	Rango complex inh	miR-21 reporter	GLA inh pH 4.5
Cc1occc1-c1nnc(SCC(=O)c2c(N)n(Cc3ccccc3)c(=O)n(C)c2=O)n1C	1%	1.4%	1%	-3
O=Cc1ccc(N2CCCC2)o1	1%	-3.5%	5%	-14[21.1 µM]

Other structures follow.
Screens in order: Rango release inh, Rango complex inh, miR-21 reporter, GLA inh pH 4.5
- O=S(=O)(NCc1ccccc1)c1cccc2nsnc12
 : 15%, -2.0%, 10%, 0
- CC(C)NC(=O)CN1CCC(c2ccccc2)C(O)C1 (stereo not drawn)
 : -4%, 3.9%, -1%, 2
- Cc1ccc(CNC(=O)CN2C(=O)CSc3ccc(S(=O)(=O)N4CCCCC4)cc32)cc1
 : -19%, 1.6%, -1%, .
- COc1cc(CN/C(C)=C(\C#N)C(N)=O)cc(OC)c1OC
 : -4%, 0.2%, 9%, -3
- O=C(NNC(=O)c1ccccc1F)c1ccc(S(=O)(=O)N2CCCC2)cc1
 : 5%, 0.8%, ., .
- Cc1ccc(Cl)cc1N1CCN(C(=O)Cc2c(C(=O)O)[nH]c3ccccc23)CC1
 : -1%, -5.0%, 0%, 2
- CCOc1ncc(S(=O)(=O)N2CCN(CC)CC2)cc1C(=O)O
 : 0%, 0.5%, 1%, .
- O=C(Nc1ccc(N2CCOCC2)cc1N1CCOCC1)c1ncoc1-c1cccc(F)c1
 : -5%, 1.2%, -3%, .
- CC(=O)Nc1ccc(NC(=O)COC(=O)CCc2nc3ccccc3s2)cc1
 : 6%, -0.1%, 6%, -7
- C/C(=N\NS(=O)(=O)c1ccc(C)c([N+](=O)[O-])c1)c1ccc2c(c1)OCO2
 : -15%, 0.9%, -3%, 3
- NC(=S)N/N=C/c1cccc(O)c1O
 : 11%, 5.1%, -12%, 5
- O=C(CCC(=O)c1cccs1)Nc1nc2ccccc2s1
 : -5%, -0.1%, ., .
- CC(CCc1ccccc1)OS(N)(=O)=O (stereo not drawn)
 : 19%, 0.8%, 0%, .
- COc1cccc(N2CC(C(=O)Nc3nnc(SCCC4OCCO4)s3)CC2=O)c1 (stereo not drawn)
 : -4%, -0.3%, 3%, .
- C[C@@H]1NC(=O)[C@H](CCC(N)=O)NC(=O)c2cc([N+](=O)[O-])cc(I)c2NCC[C@@H](C(N)=O)NC1=O
 : 8%, -2.2%, -3%, -7
- Cc1cccc(C)c1NC(=O)CCCn1nc(C)c2c(C)n(-c3ccccc3)nc2c1=O
 : -27%, -2.4%, 0%, .
- COc1cc2c(cc1NC(=O)CSc1nnc(COc3ccc(Cl)cc3)n1C)oc1ccccc12
 : 0%, 0.5%, 14%, -9
- CN(C)S(=O)(=O)c1ccc(C(=O)NC(=O)CSc2nnnn2C)cc1
 : 14%, 4.0%, ., .
- NC(=O)N/N=C/c1ccc2cccc(OCc3ccccc3)c2n1
 : -11%, -2.0%, -26%, 2
- Cc1ccc(-n2ncc3c(NCC4CCCO4)ncnc32)c(C)c1 (stereo not drawn)
 : -4%, 3.1%, -9%, -3

Three entries picked at random from those above, as already listed:
Screens in order: Rango release inh, Rango complex inh, miR-21 reporter, GLA inh pH 4.5
- O=C(CCC(=O)c1cccs1)Nc1nc2ccccc2s1
 : -5%, -0.1%, ., .
- NC(=S)N/N=C/c1cccc(O)c1O
 : 11%, 5.1%, -12%, 5
- Cc1ccc(CNC(=O)CN2C(=O)CSc3ccc(S(=O)(=O)N4CCCCC4)cc32)cc1
 : -19%, 1.6%, -1%, .

The listing continues:
Screens in order: Rango release inh, Rango complex inh, miR-21 reporter, GLA inh pH 4.5
- CC(=O)Nc1ccc(S(=O)(=O)NCc2ccc3[nH]c(C)cc3c2)cc1
 : -25%, ?, 0%, 5
- Cc1ccc(C)c(OCC(=O)N2CCN(C(=O)c3ccco3)CC2)c1
 : 1%, 6.5%, -4%, -2
- O=C(N/C(=C/C=C/c1ccccc1)C(=O)N1CCOCC1)c1ccccc1Br
 : 12%, 3.9%, 1%, -4
- CC(=O)c1cc2c(cc1NC(=O)c1ccc(C)cc1)OCCO2
 : -8%, -2.7%, -8%, .
- O=C(CCS(=O)(=O)c1ccc(Br)s1)NCc1cccs1
 : -3%, -0.3%, 1%, 2
- CN(C)CCCN1C(=O)C(O)=C(C(=O)c2cc3ccccc3o2)C1c1ccccc1 (stereo not drawn)
 : -7%, -3.9%, -9%, -2
- O=C(CCn1cccc1)NCc1ccc(Cl)cc1
 : 2%, -3.2%, -1%, 3
- COc1ccc(CCn2c(N)c(C(=O)NCc3ccco3)c3nc4ccccc4nc32)cc1
 : ?, ?, 19%, 11
- CC(CCc1ccccc1)NC(=O)CN(C)Cc1ccc(F)cc1 (stereo not drawn)
 : 3%, -3.2%, -1%, .
- CCOC(=O)C1CCCN(C2=NC(=O)/C(=C/c3ccc(OC)cc3)S2)C1 (stereo not drawn)
 : -10%, 0.3%, -5%, .
- CCO[C@H]1OC(C(N)=O)=C[C@@H](c2ccccc2)[C@@H]1CCCO
 : -7%, -3.7%, 0%, -1
